# Source: PubChem BioAssay
# NPYLR7 ag: agonists of mosquito NPYLR7 receptor, primary screen, cell-based, Aedes aegypti, calcium fluorescence, mosquito biting behavior | hit rate 0.15% among 270,000 | Aedes aegypti neuropeptide Y-like receptor 7 (NPYLR7) | HEK293T NPYLR7/Galpha15, GCaMP6s calcium fluorescence | activation, % at 10 µM; in the data active means activation above about 40%;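 further: 0% = vehicle and 100% = reference agonist at the receptor; some compounds past the cut are filed as inactive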
# NPYLR7 ag max-min: also measured in NPYLR7 ag; calls as there; activation, %; measured here: Max-Min RFU normalised activation; some inactives read as strong as hits;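 span of the calcium signal over five minutes; 0% = vehicle and 100% = native peptide agonist; compound fluorescence can raise it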
# Active calls of the source: *; & = joins results of further samples.
SMILES,NPYLR7 ag,NPYLR7 ag max-min
O=C1CC(c2ccccc2)CC2=Nc3ccccc3NC(c3ccco3)C12 (stereo not drawn),-1,-3
COc1ccccc1-c1ccc(C(=O)N2CCOC(C(F)(F)F)C2)cc1 (stereo not drawn),4,-2
Cc1ccc(C(=O)N2CCN(C(=O)c3ccc(C)n3C)[C@@H](C)C2)n1C,-2,-5
CCn1c(C2CCN(C/C=C/c3ccc(F)cc3)CC2)n[nH]c1=O,9,3
Nc1cc(Cl)ccc1NCC1CCCCC1,-6,-10
CN(C1=NC(=O)CS1)c1ccc(O)cc1,1,1
O=C(NC(C(=O)N/N=C\c1ccc([N+](=O)[O-])o1)c1n[nH]c(=O)c2ccccc12)c1ccccc1 (stereo not drawn),-9,-17
O=S(=O)(c1cccc2nsnc12)N1CCN(c2cccc(C(F)(F)F)c2)CC1,-2,-2
CCOc1ccc(Nc2nc(-c3c(C)nc4sccn34)cs2)cc1,-14,-22
FC(F)(F)c1ccnc(NCc2cccnc2-n2ccnc2)c1,17,6
COCCC1=NN(c2c(Cl)cc(Cl)cc2Cl)C(O)(C(F)(F)F)C1 (stereo not drawn),-12&4,-15&-1
O=C(CSCc1c[nH]c2ccccc12)Nc1ccc2ccccc2c1,-8,-8
CCOc1ccc(C2C(C(=O)OC)=C(C)NC3=C2C(=O)CC(c2ccccc2)C3)cc1 (stereo not drawn),5,2
CCSc1nc(N2CCCCC2)c2cnn(CCNC(=O)Cc3cccs3)c2n1,2,1
CN1CCC2(CC1)CN(C(=O)CCC(=O)c1ccc(F)cc1)CCN2C,2,5
Nc1nc(N)nc(COC(=O)C2(c3ccccc3F)CCCC2)n1,-4,-4
C=CCN(Cc1ccccn1)c1ncnc2sc3c(c12)CCNC3,3,0
COc1cccc(-n2c(-c3ccccc3)cc(C(=O)N3CCN(C(=O)Cc4cccs4)CC3)c2C)c1,-1,7
O=C(Cc1ccsc1)N1CCC(n2cnc3cc(C(F)(F)F)ccc32)CC1,3,15
O=C(CC1C=CCC1)N1CCN(S(=O)(=O)c2ccccc2F)CC1 (stereo not drawn),3,2
Cc1cc(=O)[nH]c(-n2ncc(C(=O)Nc3nc4ccccc4s3)c2C)n1,-2,-3
COc1ccc(CN(C)C(=O)CN(C)Cc2cnc(C)s2)cc1,3,1
COc1ccccc1Cn1c(C)c(C(=O)NCc2ccc(F)cc2)sc1=O,15,3
Cc1ccsc1-c1nc(CN(C)Cc2cnn(C)c2C)c(C)o1,3,-2
Cc1cc(C)[n+]2nc(-c3ccccc3)oc2n1,-3,-11
# Further records:
SMILES,NPYLR7 ag,NPYLR7 ag max-min
C=CCNC(=O)C(C#N)c1nc2ccccc2[nH]c1=O (stereo not drawn),-3,-4
CCOC(=O)/C(C#N)=C\C1=C(N2CCOCC2)CC(C)(C)OC1,-6,-5
O=c1cc(CSc2nnc(-c3sc4ccccc4c3Cl)o2)nc2sccn12,-2,-4
Cn1ccnc1-c1ccc(N2CCCC(CO)(Cc3ccccc3F)C2)nn1 (stereo not drawn),21,14
Cc1csc(=Nc2ccc(Cl)cc2)n1N1CCOCC1,-7,-10
O=C(c1ccc(N2CCC(NCCOc3cccnc3)CC2)cc1)N1CCc2ccccc2C1,-4,-9
Cc1cccc(NC(=O)CN(C)C(=O)c2ccc3n[nH]nc3c2)c1C,2,-1
CN(C)CCCN(C(=O)c1ccco1)c1nc2ccc(F)cc2s1,1,1
O=C(COc1ccc(Cl)cc1)N1CCCN(c2nc(C3CCOCC3)nc3c2cnn3-c2ccccc2)CC1,-8,-1
Cc1cc(C)cc(C(=O)N2CCN(C(=O)c3cc(C4CC4)[nH]n3)CC2)c1,5,4
CN1CC(=O)N2CCN(Cc3cccc(-c4ccco4)c3)CC2C1=O (stereo not drawn),3,4
O=C(O)c1ccc(OC(C(=O)N2CCCCC2)c2ccccc2)cc1 (stereo not drawn),3,2
COc1ccc(-c2nc(CN(CC3CCC3)CC3CCCO3)c(C)o2)c(F)c1 (stereo not drawn),3&-8,1&-14
O=C(NC1(c2ccc(Br)cc2)CC1)C1CC2CCC1O2 (stereo not drawn),7,4
NC(=O)NN=Cc1cc2c(cc1[N+](=O)[O-])OCO2,13,11
Cc1ccc(C2=NOC(C(=O)NC(Cc3ccccc3)C(=O)NCc3ccco3)C2)cc1 (stereo not drawn),1,9
O=c1c(Oc2ccccc2Br)c(C(F)(F)F)oc2c(CN3CCOCC3)c(O)ccc12,0,-4
CC(=O)OCC(=O)[C@@]1(O)CCC2C3CCC4=CC(=O)CC[C@]4(C)[C@@]3(F)[C@@H](O)C[C@@]21C (stereo partly drawn),-5,-7
COc1ccc(Oc2ccc3c(C4CC4)noc3n2)c(Cl)c1,9,5
O=C(NCC1CCCN(Cc2cccc(C(F)(F)F)c2)C1)c1ccc(F)cc1 (stereo not drawn),14,13
Cc1ccccc1C1=NOC2CN(C(=O)c3cc(C)n(C(C)(C)C)n3)CC12 (stereo not drawn),7,3
CCOC(=O)CNC(=O)NC1CC(=O)N(C2CCCCCC2)C1 (stereo not drawn),2,-2
CCOC(=O)C1=C(C)NC(=O)NC1c1cccc(O)c1 (stereo not drawn),-10,-17
CCOP(=O)(CCCCNC(=O)c1c(-c2ccccc2)noc1C)OCC,-2,-4
COc1ccc2c(c1OC)C(=O)N1c3ccc(Cl)cc3-c3nc(=O)c(C)nn3C21 (stereo not drawn),14,13
# Following part
SMILES,NPYLR7 ag,NPYLR7 ag max-min
CON(C)S(=O)(=O)c1cc(C(=O)N2CCCCc3ccccc32)ccc1Cl,10,3
COCCN=c1scc(-c2ccc(OC(F)F)cc2)n1N=Cc1ccc(F)cc1,2,1
COc1ccc(N2CCN(CCc3c[nH]c4ccc(NC(=O)c5c(F)c(F)c(F)c(F)c5F)cc34)CC2)cc1,8,-5
COc1ccc(CN(C)C(C)c2nc3sc4c(c3c(=O)[nH]2)CCC(C)C4)cc1F (stereo not drawn),6,4
COc1ccccc1CN=c1c([N+](=O)[O-])nn(-c2ccccc2)n1O,-13,-19
CC(CC#N)N(C)C(=O)c1ccc(-n2cccc2)c(F)c1 (stereo not drawn),5,6
COc1ccc(CC(=O)N2CCC(n3cnc4ccccc43)CC2)cc1C,-6,-8
COc1ccc(S(=O)(=O)NCCc2csc3nc(-c4ccccc4)nn23)cc1F,-5,0
COc1ccc2nc(N3CCc4ccccc4C3)sc2c1,2,-1
COc1ccc(OC)c(CC(=O)N2CCCN(c3c(-c4ccc(OC)c(OC)c4)cnc4ncnn34)CC2)c1,25,17
COc1cccc(-c2c[nH]c(=O)n2Cc2cccs2)c1,15,8
COc1ccc(CCc2nnc(CCC(=O)N3CCC(C(O)C(C)C)CC3)o2)cc1 (stereo not drawn),2,-1
Cc1cccc(N2CCN(C(C)C(=O)NC3CC3)CC2)c1C (stereo not drawn),5,4
Cc1cccc(S(=O)(=O)Nc2ccc(-c3ccc4nncn4n3)cc2)c1,-9,-3
CN(C)CCCN(C(=O)c1ccc2c(c1)CCCC2)c1nc2cc3c(cc2s1)OCO3,-3,-3
CCc1c(C)[nH]c2ccc(Oc3ccccc3)cc2c1=O,0,0
CC(=O)OCCNc1ccc2noc3c2c1C(=O)c1ccccc1-3,50,38
CC(C)n1c(-c2nccc3ccccc23)n[nH]c1=S,-7,-15
COc1ccc(SCC(=O)N2CCS(=O)(=O)CC2c2ccc(C)o2)cc1 (stereo not drawn),-5,-5
CCOC(=O)c1ccccc1NC(=O)Cn1cnc2c(nnn2-c2cccc(C)c2)c1=O,-4,-9
Cc1cccc(N2CC(C(=O)Nc3ncccc3O)CC2=O)c1C (stereo not drawn),-5,-6
COc1cc(C)ccc1-c1[nH]cnc1-c1ccccc1,-11,-21
Clc1cccc(C2c3cccn3CCCN2Cc2cccnc2)c1 (stereo not drawn),12,13
O=C(CN1CN(c2ccccc2)C2(CCN(C(=O)c3ccc(F)cc3)CC2)C1=O)NCc1ccc2c(c1)OCO2,-3,8
Cc1c(F)cccc1NC(=O)CNCCc1csc(-c2cccnc2)n1,-3,-5
# Following part.
SMILES,NPYLR7 ag,NPYLR7 ag max-min
CC1CN(c2ccc(/C=C(\C#N)c3nc4ccccc4[nH]3)o2)CC(C)O1 (stereo not drawn),81*,110*
Cc1ccc(NC(=O)CC(=O)N2CCC3(CCCN(C)CC3)CC2)cc1,16,16
COc1ccc(CN2CCCC(CO)(Cc3ccccc3C)C2)c(F)c1 (stereo not drawn),11,12
COCCNc1nc(-c2cc(C)c(C)cc2C)cs1,3,1
Cc1cc(F)ccc1Oc1cc(N2CCN(CC(=O)NC(C)C)CC2)ncn1,-8,-2
CCN(CC)c1ccc(NC(=O)Cn2nc3c(cc2=O)CCCC3)c(C)c1,-24,-27
O=S(=O)(NNc1c(F)c(F)cc(F)c1F)c1ccccc1,18,10
COc1ccc(-c2cccc(-c3ccc(NC(=O)c4c(C)noc4C)cc3)n2)cc1,2,4
S=c1[nH]nc(C2CC2)n1Cc1ccccc1,3,0
COc1ccccc1C1=NN(C(=O)CN2CCC3(CC2)OCCO3)C(c2cccc(F)c2)C1 (stereo not drawn),-1,8
CC(C)c1ncc(C(=O)N2CCC(N3CCCC3=O)CC2)c(=O)[nH]1,15,11
CC(C)(C)c1ccc(S(=O)(=O)Nc2ccccc2C(=O)NCc2ccc3c(c2)OCO3)cc1,18,8
c1ccc(-c2oc3ncn4nc(-c5cccnc5)nc4c3c2-c2ccccc2)cc1,1,1
O=C(CN1CCc2ccccc2C1)N1N=C(c2ccc(F)cc2)CC1c1ccccc1Cl (stereo not drawn),18,13
COCCN(Cc1cnn(C)c1)C(=O)c1cc(-c2ccccc2Cl)oc1C,17,7
Cn1nc(C(=O)Nc2ccc(-c3csc(N4CCOCC4)n3)cc2)ccc1=O,5,2
CONC(=O)c1sc(-c2cc(Br)cs2)nc1C,-1,-2
CCc1nccn1-c1cc(C(C)C)nc2c(-c3ccccc3)cnn12,3,3
COC(=O)c1ccc(NC(=O)COc2coc(CN3c4ccccc4CC3C)cc2=O)cc1 (stereo not drawn),2,-1
CCCN(Cc1nc2cc(Cl)ccc2c(=O)[nH]1)C(=O)C=Cc1ccc(C)s1,7,5
Cc1c([N+](=O)[O-])cc(C(=O)N2CCCCCC2)cc1[N+](=O)[O-],6,3
Cc1ccc(C(=O)NCc2ccc(CN3CCN(C)CC3)cc2)cn1,3,2
CNC(=O)C1CCN(c2cc(C)nc(-c3ccccc3)n2)C1 (stereo not drawn),10,7
C=CCCC(O)CN(Cc1c(-c2ccccc2)nn(C)c1Oc1ccccc1OC)CC(C)C (stereo not drawn),9,10
CCC/C=C/C(=O)Nc1ccc(C)cc1,8,5

# Record cards (already shown). Values in the order: NPYLR7 ag | NPYLR7 ag max-min
# NC(=O)NN=Cc1cc2c(cc1[N+](=O)[O-])OCO2 is listed with 13 | 11
# COCCC1=NN(c2c(Cl)cc(Cl)cc2Cl)C(O)(C(F)(F)F)C1 (stereo not drawn) is listed with -12&4 | -15&-1
# O=C(NC1(c2ccc(Br)cc2)CC1)C1CC2CCC1O2 (stereo not drawn) is listed with 7 | 4
# CCOP(=O)(CCCCNC(=O)c1c(-c2ccccc2)noc1C)OCC is listed with -2 | -4

# The results go on:
SMILES,NPYLR7 ag,NPYLR7 ag max-min
CCn1ncc(Br)c1C(=O)Nc1ccc(Cl)cn1,13,7
CN1CCN(NC(=O)NC2CC(=O)N(c3ccc4c(c3)OCCO4)C2)CC1 (stereo not drawn),-3,2
CCOc1ccc2nc(N)sc2c1,-3,-9
CC(C)(C)c1cc(CN2CCc3[nH]cnc3C2c2ccncc2)[nH]n1 (stereo not drawn),5,1
COC(=O)COc1ccc(CN2C[C@@H]3[C@@H]4CC[C@@H](C4)[C@@H]3C2)cc1OC,8,6
COc1ccc(-c2nnc(SCC(=O)OCc3ccccc3)n2C2CCCCC2)cc1,15,12
COc1cc(C(C2Sc3nc(C)nn3C2=O)N2CCN(C)CC2)cc(OC)c1OC (stereo not drawn),2,0

# Molecules above containing an NH in an aromatic ring:
SMILES,NPYLR7 ag,NPYLR7 ag max-min
CCn1c(C2CCN(C/C=C/c3ccc(F)cc3)CC2)n[nH]c1=O,9,3
O=C(NC(C(=O)N/N=C\c1ccc([N+](=O)[O-])o1)c1n[nH]c(=O)c2ccccc12)c1ccccc1 (stereo not drawn),-9,-17
O=C(CSCc1c[nH]c2ccccc12)Nc1ccc2ccccc2c1,-8,-8
Cc1cc(=O)[nH]c(-n2ncc(C(=O)Nc3nc4ccccc4s3)c2C)n1,-2,-3
C=CCNC(=O)C(C#N)c1nc2ccccc2[nH]c1=O (stereo not drawn),-3,-4
Cc1cccc(NC(=O)CN(C)C(=O)c2ccc3n[nH]nc3c2)c1C,2,-1
Cc1cc(C)cc(C(=O)N2CCN(C(=O)c3cc(C4CC4)[nH]n3)CC2)c1,5,4
COc1ccc(N2CCN(CCc3c[nH]c4ccc(NC(=O)c5c(F)c(F)c(F)c(F)c5F)cc34)CC2)cc1,8,-5
COc1ccc(CN(C)C(C)c2nc3sc4c(c3c(=O)[nH]2)CCC(C)C4)cc1F (stereo not drawn),6,4
COc1cccc(-c2c[nH]c(=O)n2Cc2cccs2)c1,15,8
CCc1c(C)[nH]c2ccc(Oc3ccccc3)cc2c1=O,0,0
CC(C)n1c(-c2nccc3ccccc23)n[nH]c1=S,-7,-15
COc1cc(C)ccc1-c1[nH]cnc1-c1ccccc1,-11,-21
CC1CN(c2ccc(/C=C(\C#N)c3nc4ccccc4[nH]3)o2)CC(C)O1 (stereo not drawn),81*,110*
S=c1[nH]nc(C2CC2)n1Cc1ccccc1,3,0
CC(C)c1ncc(C(=O)N2CCC(N3CCCC3=O)CC2)c(=O)[nH]1,15,11
CCCN(Cc1nc2cc(Cl)ccc2c(=O)[nH]1)C(=O)C=Cc1ccc(C)s1,7,5
CC(C)(C)c1cc(CN2CCc3[nH]cnc3C2c2ccncc2)[nH]n1 (stereo not drawn),5,1

# An excerpt. The share of hits here may be higher or lower than overall.
